Screens from PubChem.
Cruzain inh noDet = qHTS Assay for Promiscuous and Specific Inhibitors of Cruzain (without detergent). 200,000 compounds, 2.3% hits. Potency, µM, without a hit: max response, negative = inhibition, usual class: inhibitors. AID 1476, 2009. purified cruzain, Z-FR-AMC fluorescence, no detergent. Cruzipain (Trypanosoma cruzi), P25779;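 note: plate controls were enzyme without inhibitor for no effect and buffer without enzyme for full effect; nearly all actives have a fitted effect of over 40% in size; top concentration of the series not given in the record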
Target sequence (P25779 123-467 limits assumed): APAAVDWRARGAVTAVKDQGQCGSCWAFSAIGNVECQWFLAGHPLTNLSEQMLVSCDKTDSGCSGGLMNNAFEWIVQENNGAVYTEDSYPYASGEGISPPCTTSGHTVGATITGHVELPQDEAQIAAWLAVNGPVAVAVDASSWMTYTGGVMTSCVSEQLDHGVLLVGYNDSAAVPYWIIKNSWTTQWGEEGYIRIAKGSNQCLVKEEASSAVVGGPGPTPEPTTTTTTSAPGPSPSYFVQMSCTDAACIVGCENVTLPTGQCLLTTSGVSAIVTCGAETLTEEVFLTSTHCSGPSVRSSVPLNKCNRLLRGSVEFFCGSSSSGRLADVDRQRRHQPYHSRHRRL
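Purified cruzain at 1.5 nM, pre-incubated 15 min with compound at room temperature in 100 mM sodium acetate pH 5.5, 5 mM DTT, 0.00005% Triton X-100. Reaction started with 2 uM Z-FR-AMC; AMC fluorescence increase over 60 s gives rate.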
Marburg entry inh = qHTS for inhibitors of binding or entry into cells for Marburg Virus; Marburg virus pseudotyped entry inhibition, cell reporter; control for the full effect not named in the record; about a third of the inactives were read at about 46 µM; Potency, µM (doses to about 37.8 µM), for the others: top-dose activity change, negative = inhibition, hits mostly inhibitors; 300,000 compounds, 1.8% hits; active = well fitted inhibition curve with a large enough effect; inconclusive = small, poorly fitted or top-dose-only effect, or effect the other way; inactive = flat fitted curve, though single readings scatter; tested in HEK293 cells; about a fifth of its hits are not listed in these tables; note: % is set by controls: 0 for no effect and ±100 for the full control effect; luciferase read-out
SARS PLpro yeast = qHTS of Yeast-based Assay for SARS-CoV PLP. 330,000 compounds, 0.19% hits. S. cerevisiae expressing SARS-CoV PLpro, growth rescue; control for the full effect not named in the record. AID 485353, 2010. Potency, µM (series often up to 32.9 µM), for the others: at the top dose activity, positive = growth rescue; active means well fitted rising curve with a large enough effect; inconclusive means small, poorly fitted or top-dose-only effect; inactive means no such curve, though single readings can be large or run the other way; note: 0% is about no effect; nearly all actives have a fitted effect of over 55% in size; growth read by luminescence after 48 h
Cruzain inh Det = qHTS Assay for Promiscuous and Specific Inhibitors of Cruzain (with detergent); 200,000 compounds, 0.43% hits; Cruzipain (Trypanosoma cruzi), P25779; Potency, µM, inactives show max response, negative = inhibition, most hits filed as inhibitors; AID 1478, 2009; purified cruzain, Z-FR-AMC fluorescence, 0.01% Triton;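 note: plate controls were neutral wells for no effect and buffer without enzyme for full effect; nearly all actives have a fitted effect of over 40% in size; top concentration of the series not given in the record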
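Detergent-containing run (0.01% Triton X-100) in acetate buffer pH 5.5 with 5 mM DTT: enzyme at 1.5 nM final, 15 min compound preincubation at room temperature, then 2 uM Z-FR-AMC substrate. Activity taken as 60 s fluorescence increase at 360/450 nm.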
Lassa entry inh = qHTS for Inhibitors of binding or entry into cells for Lassa Virus; 300,000 compounds, 1.2% hits; Potency, µM (top dose mostly 37.9 µM), for inactives: at the top dose activity change, negative = inhibition, usual class: inhibitors; AID 540256, 2011; Lassa virus pseudotype entry inhibition, cell reporter; control for the full effect not named in the record; active means well fitted inhibition curve with a large enough effect; inconclusive means small, poorly fitted or top-dose-only effect, or effect the other way; inactive means flat fitted curve, though single readings scatter; tested in HEK293 cells; note: % is set by controls: 0 for no effect and ±100 for the full control effect; nearly all actives have a fitted effect of over 50% in size; luciferase read-out
RE007 growth inh = qHTS Assay for Inhibitors of the HIV-1 protein Vpr. S. pombe RE007 Vpr strain, BacTiter-Glo ATP luminescence, 24 h; control for the full effect not named in the record. Potency, µM (doses to about 92.2 µM), for the others: at the top dose activity change, negative = less growth. 360,000 compounds, 0.21% hits. AID 651644, 2012; active = well fitted falling curve with a large enough effect; inconclusive = small, poorly fitted or top-dose-only effect; inactive = no such curve, though single readings can be large or run the other way;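 note: % is set by controls: 0 for no effect and ±100 for the full control effect; nearly all actives have a fitted effect of over 50% in size; the assay follows cell death caused by Vpr and the record does not say whether a fall means rescue or toxicity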
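Fission yeast RE007 carrying one integrated HIV-1 vpr copy, seeded at OD 0.01 in PMG+AL medium with 23 nL pinned compound. Grown 24 h at 30 degrees; viability read by BacTiter-Glo luminescence after 5 min.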
NS1 function inh = qHTS Assay for Inhibitors of Influenza NS1 Protein Function; AID 2326, 2010; S. cerevisiae slowed by influenza A NS1, growth recovery by OD600; 270,000 compounds, 0.4% hits; Potency, µM (series often up to 46.1 µM), without a hit: at the top dose activity, positive = more growth; active means well fitted rising curve with a large enough effect; inconclusive means small, poorly fitted or top-dose-only effect; inactive means no such curve, though single readings can be large or run the other way; note: nearly all actives have a fitted effect of over 50% in size
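Growth recovery, yeast-based: influenza A NS1 expressed in S. cerevisiae causes slow growth, and suppressors are detected by OD600. The parent strain without NS1 is used as positive control.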
StopGo reporter = High Throughput Screening for Foot and Mouth Disease Virus Antivirals | human cells with a luciferase reporter of 2A StopGo recoding; control for the full effect not named in the record | 410,000 compounds, 1.2% hits | Potency, µM (doses to about 57.9 µM), for the others: at the top dose signal change, negative = less light; active = well fitted falling curve with a large enough effect; inconclusive = small, poorly fitted or top-dose-only effect; inactive = no such curve, though single readings can be large or run the other way; tested in HEK293T cells; note: % is set by controls: 0 for no effect and ±100 for the full control effect; nearly all actives have a fitted effect of over 45% in size; luciferase light after 4 h
* = called active by the depositor; ? = inconclusive; · = not tested or not shown; & = joins results of further samples; [ ] = remark or other dose. Unless noted, calls come from the whole dose curve; as a rule, active = well fitted curve in the direction sought with a large enough effect; inconclusive = small, poorly fitted or top-dose-only effect, or another doubt; inactive = no such curve, though single readings can be large; an effect the other way counts as inactive or inconclusive. Potency is the fitted concentration of half-maximal effect.

| canonical_smiles | Marburg entry inh | SARS PLpro yeast | RE007 growth inh | StopGo reporter | Cruzain inh noDet | NS1 function inh | Cruzain inh Det | Lassa entry inh |
| --- | --- | --- | --- | --- | --- | --- | --- | --- |
| CCN(CC)S(=O)(=O)c1ccc(N2C(=O)CC2(/C=C/c2ccccc2)C(=O)NC2CCCC2)cc1 (stereo not given) | ? | 0.1% | 31.5% | -15.5% | ? | 0.2% | -5.0% | ? |
| Nc1nonc1OCCc1ccccc1 | 6.4% | -3.2% | -1.9% | 35.4%[activator] | 1.1% | 2.5% | 9.1% | 3.7% |
| O=C(NC1CC1)C1=C[C@@H](c2ccccc2)C[C@@H](OCc2ccc(CO)cc2)O1 | · | 1.3% | 1.2% | 5.7% | · | 2.1% | · | · |
| COc1ccccc1CN1CCN(S(=O)(=O)c2ccccc2)CC1 | -17.4% | -2.3% | 11.7% | -15.0% | -3.8% | -1.1% | 4.1% | -1.5% |
| CCC1(C)Cc2c(sc3nc(SC)nc(NCCN(C)C)c23)CO1 (stereo not given) | ? | 0.5% | -8.4%[3.69 µM] | -13.5% | 1.2% | 1.0% | 4.8% | -10.9% |
| CCCCCn1c(CCNC(=O)c2ccc(F)cc2)nc2ccccc21 | ? | · | · | ? | ? | · | 4.47µM* | -6.8%[46.1 µM] |
| CCn1c(SCC(=O)NCc2ccco2)nc2c1c(=O)n(C)c(=O)n2C | 11.6% | 3.2% | 7.4% | -1.7% | -10.2% | -6.6% | 0.6% | -2.1% |
| c1ccc(CNCCC(Cc2ccccc2)c2ccco2)cc1 (stereo not given) | ? | -1.8% | 8.7% | -5.0% | · | 2.7% | · | ? |
| Cc1nc2nc(-c3ccc(Cl)cc3)[nH]n2c(=O)c1Cc1ccccc1 | 24.6% | 9.2% | 5.3% | 59.8%[activator] | -14.2% | 4.9% | 5.7% | 10.4% |
| O=C(CSc1ccccc1)Nc1ccccc1C(=O)N1CCCC1 | · | -0.7% | 3.0% | 27.5% | · | 0.8% | · | · |
| CCOC(=O)c1ccc(NC(=O)c2cc(=O)c3cc(CC)ccc3o2)cc1 | ? | · | · | -5.4% | -9.5% | · | -1.1% | 6.2%[46.1 µM] |
| COCCCNC(=O)Cn1c(=O)n(CCCC(=O)NCc2ccc(C)cc2)c(=O)c2ccccc21 | -2.6%[46.1 µM] | · | · | -5.9% | 2.6% | · | -0.1% | 12.4%[46.1 µM] |
| O=C(Cn1ccc2ccccc2c1=O)NCCC(=O)N1CCN(C(=O)c2ccco2)CC1 | -11.1% | · | -5.9% | 22.6% | · | 3.2% | · | 13.5% |
| Cn1c(=O)c(C(=O)COc2ccc(F)cc2Cl)c(N)n(Cc2ccccc2)c1=O | ? | -1.7% | -12.8% | -28.5% | · | -32.3% | · | -13.4%[46.1 µM] |
| NC(=O)c1nsc(C(=O)N(Cc2cccnc2)C(C(=O)NC2CCCCC2)c2ccc(F)cc2)c1N (stereo not given) | 0.9%[46.1 µM] | 5.8% | -5.6% | 23.2% | · | 7.8% | · | ? |
| CC(C)Cc1nn2c(=O)cc(COC(=O)c3ccc4c(c3)OCO4)nc2s1 | · | · | · | -13.9% | -0.9% | · | -0.4% | 13.9%[46.1 µM] |
| Cc1ccc(N(C(=O)CNC(=O)c2ccco2)C(C(=O)NC2CCCC2)c2ccncc2)cc1 (stereo not given) | -4.5%[46.1 µM] | 0.7% | 6.0% | -14.8% | · | 0.9% | · | -0.7%[46.1 µM] |
| CCOc1cc(C2C(C(=O)c3ccc(C)o3)=C(O)C(=O)N2CCc2ccccc2)ccc1O (stereo not given) | 1.7%&3.9% | -8.1% | 13.4% | 6.4% | 15.3% | 13.9% | -4.9% | 14.8% |
| COc1ccc(CC(=O)NCc2nc3cccnc3n2Cc2ccc(C)cc2)cc1OC | · | · | · | -8.7% | 6.3% | · | -1.9% | 0.3%[46.1 µM] |
| CC(C)C(=O)Nc1cc(S(=O)(=O)Nc2ccc(Cl)cc2)ccc1Cl | -1.9% | -38.0% | 12.0% | 38.8%[activator] | -6.7% | -8.3% | -7.9% | · |
| CC1(C)CC(NC(=O)c2ccc(Cl)c(S(=O)(=O)N(Cc3ccccc3)c3ccccc3)c2)CC(C)(C)N1 | 8.91µM* | · | 9.1% | -28.2% | · | · | · | -42.9% |
| CN(C(=O)COC(=O)c1ccccc1SCC(=O)N1CCCC1)c1ccccc1 | ? | 4.0% | 7.0% | -17.5% | · | 0.6% | · | -7.5% |
| Cc1cccc(N2CCN(C(=O)CCNS(=O)(=O)c3ccc4c(c3)oc(=O)n4C)CC2C)c1 (stereo not given) | · | -0.4% | 0.1% | -8.5% | · | 8.3% | · | · |
| Cc1cc(C)c(S(=O)(=O)NCC(=O)NCc2ccco2)c(C)c1 | 10.5%[46.1 µM] | 5.5% | 0.5% | -0.3% | · | · | · | 0.6% |
| N#CCC(=O)N/N=C/c1cn(Cc2ccc(Cl)c(Cl)c2)c2ccccc12 | ? | 0.8% | 2.1% | -15.9% | · | 6.0% | · | ? |
| CCSc1nnc(NC(NC(=O)c2ccco2)(C(F)(F)F)C(F)(F)F)s1 | 7.9% | ? | 16.6% | 2.8% | 3.8% | -3.5% | 3.9% | 4.7% |
| O=c1oc2c3c4c(cc2c(C(F)(F)F)c1CCN1CCOCC1)CCCN4CCC3 | 0.3%&0.3%&0.3% | -0.5% | -9.5% | ? | -13.0% | -0.4% | 4.3% | 17.6% |
| COc1ccc(CN(C)C(=O)c2ccc(OCC(=O)Nc3cccc(C(F)(F)F)c3)c(OC)c2)c(OC)c1 | ? | · | 2.6% | ? | · | · | · | ? |
| O=C1OCC2=C1C(c1ccc(Cl)cc1)CC(=O)N2c1ccc(F)cc1 (stereo not given) | -23.7% | -0.2% | 6.9% | 7.6% | · | · | · | -14.2% |
| Cc1cccc(C)c1NC(=O)NCCSc1snnc1C | 6.1%[46.1 µM] | -0.5% | 6.5% | 19.6% | · | · | · | 16.9%[46.1 µM] |
| CC(=O)NCC(=O)OC(C(=O)c1ccccc1)c1ccc(Cl)cc1 (stereo not given) | 3.1% | -2.1% | 22.9% | -21.2% | ? | -10.5% | ? | 2.0% |
| COc1cccc2cc(C(=O)NCc3ccc(Cl)cc3)c(=O)oc12 | -3.9%[46.1 µM] | -0.2% | 11.9% | 12.9% | · | 18.2% | · | 6.9%[46.1 µM] |
| CC1(C)CC(=O)c2cc(C(=O)NCc3ccco3)c(=O)n(-c3ccccc3)c2C1 | -1.3% | 8.3% | 2.0% | -17.8% | -0.5% | 3.4% | -3.7% | -4.4% |
| Clc1cccc(-c2noc3ncnc(Nc4ccc5c(c4)OCO5)c23)c1 | · | 6.8% | 2.8% | 0.0% | · | -3.0% | · | · |
| COc1ccc(NC(=S)N/C(=N/CS(=O)(=O)c2ccccc2)c2ccccc2)cc1 | 18.6% | -19.8% | 0.3% | · | -22.5% | -3.3% | -9.9% | 1.5% |
| Cc1ccc(CN2CCN(Cc3cc4ccccc4o3)CC2CCO)cc1 (stereo not given) | · | -0.4% | 4.6% | -2.9% | · | 2.5% | · | · |
| Cc1ccc(NC(=O)CSc2nc3ccccc3n2CC(=O)N2CCC(C)CC2)cc1C | · | · | · | -12.2% | 29.3% | · | -2.0% | ? |
| Cc1nc2ccccc2nc1OCc1ccccc1 | -4.6% | 18.9% | 27.5% | -17.4% | 10.3% | -20.1% | -5.6% | 3.7% |
| N=C(N)Sc1nc(N2CCCCC2)nc(N2CCCCC2)n1 | 14.0% | -0.4% | 9.3% | 0.0% | · | 0.5% | · | 21.4% |
| CN1C[C@@H]2C[C@@H](C3=Cc4cc(Cl)ccc4OC3)N3CCC[C@@]23C1=O | -3.3%[46.1 µM] | 0.3% | -16.9% | -11.0% | · | 0.3% | · | 7.5% |
| N#C/C(=C\c1c(N2CCN(c3ccccc3)CC2)nc2ccccn2c1=O)C(N)=O | · | -1.6% | 3.6% | 33.3%[activator] | · | 0.8% | · | · |
| Cc1cccc(NC(=S)N(CCCN2CCCC2)Cc2cccn2Cc2ccc(Cl)cc2)c1 | 7.08µM* | 0.3% | -14.7% | -19.2% | · | · | · | ? |
| O=C(CSc1nc2cc(Cl)ccc2o1)N1CCOCC1 | -10.7% | -14.2% | 27.1% | -0.1% | ? | -47.4% | -0.1% | 2.8% |
| COc1ccc(/C=C2\SC(=S)N(C(Cc3ccccc3)C(=O)O)C2=O)cc1 (stereo not given) | 24.9%[46.1 µM] | -6.2% | 10.6% | -19.6% | · | -1.8% | · | -0.8% |
| O=C(COc1ccc(Cl)cc1)Nc1ccc2[nH]ncc2c1 | -2.9% | -3.4% | 3.3% | -30.0% | · | -7.1% | · | 6.0% |
| CCOC(=O)c1ccc(NC(=O)CSc2nnc(-c3cccs3)n2CC)cc1 | -5.3% | 0.8% | -7.4% | ? | -12.7% | -8.1% | 6.9% | -18.6% |
| CN(C)CCN(C(=O)c1ccc2c(c1)CCCC2)c1nc2cc3c(cc2s1)OCCO3 | ? | -0.4% | 4.6% | -9.0% | · | -7.2% | · | ? |
| CCOCCOC(=O)C1=C(C)N(C)C(=O)NC1c1cc(Cl)c(O)c(OC)c1 (stereo not given) | ? | -1.0% | -2.7% | -1.6% | -0.4% | -0.8% | -0.5% | 3.7% |
| NS(=O)(=O)c1ccc(NCCCn2ccnc2)c([N+](=O)[O-])c1 | -1.5%[46.1 µM] | 8.4% | 6.3% | 2.8% | · | 7.9% | · | 2.8% |
| Fc1ccc(-c2nnc(-c3ccc(Cl)cc3Cl)o2)cc1 | · | 0.7% | -10.5% | -23.4% | 6.6% | 1.8% | -2.4% | · |
| CCc1nnc(NC(=O)CSc2nc3c(cc2C#N)CCCC3)s1 | -13.0%[46.1 µM] | 1.9% | 2.6% | 43.7%[activator] | -24.7% | -4.8% | 1.1% | ? |
